High-throughput results (PubChem BioAssay)
GIRK2 activ: GIRK2 channel activation; P48051; HEK293-GIRK2 thallium flux, Thallos fluorescence; calls only for hits at 25 µM; actives 0.05% (n = 63,000); AID 1259325;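 active means among the strongest 0.2% of first-round signals and kept after retests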;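 further: first round at about 10 µM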
Target sequence (P48051 whole entry, looked up): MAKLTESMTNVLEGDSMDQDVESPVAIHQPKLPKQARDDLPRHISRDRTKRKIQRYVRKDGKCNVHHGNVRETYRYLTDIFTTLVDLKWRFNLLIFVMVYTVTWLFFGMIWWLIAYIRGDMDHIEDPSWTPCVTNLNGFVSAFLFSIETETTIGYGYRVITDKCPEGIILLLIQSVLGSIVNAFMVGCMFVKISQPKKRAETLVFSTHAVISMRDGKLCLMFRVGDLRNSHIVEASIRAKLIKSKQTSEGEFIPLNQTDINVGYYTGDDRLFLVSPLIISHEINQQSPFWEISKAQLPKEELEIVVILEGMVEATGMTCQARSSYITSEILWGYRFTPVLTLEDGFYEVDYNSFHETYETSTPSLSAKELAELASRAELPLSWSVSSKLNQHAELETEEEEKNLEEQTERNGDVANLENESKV
Calls only; i = inactive.

GIRK2 activ,structure
i,COc1cccc(C2c3c(oc4cc(C)c(Cl)cc4c3=O)C(=O)N2CCCN(C)C)c1 (centres undefined)
i,COCc1nc2ccccc2n1Cc1ccc(Cl)cc1Cl
i,O=C1CCc2ccc(OCc3cn4ccccc4n3)cc21
i,COc1cc2[nH]c(=O)n(CCCCC(=O)NCc3ccc(N(C)C)cc3)c(=O)c2cc1OC
i,Nc1nc(CCN2C(=O)c3ccccc3C2=O)cs1
i,COc1ccc(C(=O)N2CCN(c3nnc(SCC(N)=O)s3)CC2)cc1
i,CCN(CC)c1ccc(NC(=O)Cn2cnc3c(sc4nc(C)cc(C)c43)c2=O)c(C)c1
i,O=C(COc1ccccc1F)N1CCC(Oc2nc3ccccc3s2)CC1
i,OC(CON=C1c2ccccc2-c2ccccc21)CN1CCNCC1 (centres undefined)
i,CCc1cccc(NC(=O)Cn2nc(-c3cccs3)c3sc(N4CCCC4)nc3c2=O)c1
i,CCOC(=O)N1CCN(Cc2cc(=O)oc3c(C)c(O)ccc23)CC1
i,O=c1[nH]cccc1-c1noc(C2CN(S(=O)(=O)c3ccc4c(c3)CCCC4)C2)n1
i,O=C(Cc1ccc(Cl)cc1)NCCNc1cc(Nc2ccccn2)ncn1
i,Cc1cn(C)nc1C(=O)N(CCN1CCOCC1)c1nc2c(Cl)cccc2s1
i,O=C(NCC1CCN(C(=O)c2cccnc2)CC1)Nc1ccc(Cl)c(Cl)c1
i,CCCCNC(=O)c1c(N)n(/N=C\c2cccc(OC)c2OC)c2nc3ccccc3nc12
i,CS(=O)(=O)N1CCN=C1SCc1ccc(Br)cc1
i,CS(=O)(=O)Nc1cccc(NC(=O)C2COCC(=O)N2Cc2ccccc2)c1 (centres undefined)
i,COC(=O)Cn1c(SCCOc2ccc(OC)cc2)nc2ccccc21
i,COc1cc(NS(=O)(=O)c2ccccc2F)ccc1N1CCCCC1=O
i,CCCn1c(=O)c2c(nc3n2CCN3c2ccc(CC)cc2)n(C)c1=O
i,COC(=O)c1ccc2c(=O)n(Cc3ccc(C(=O)NC4CCCCC4C)cc3)c(=S)[nH]c2c1 (centres undefined)
i,O=C(COc1ccc(Cl)cc1Cl)Nc1ccc2cn[nH]c2c1
i,Cc1nn(C(C)(C)C)c(OC(=O)c2cccc(C(F)(F)F)c2)c1S(=O)(=O)c1ccccc1
i,CCOc1cccc2sc(N(Cc3cccnc3)C(=O)Cc3ccc(F)cc3)nc12
i,O=C(Nc1nnc(-c2ccc(C(F)(F)F)cc2)o1)c1cnc2ccccc2n1
i,COc1cc(OC)cc(C(=O)N(CCCn2ccnc2)c2nc3ccc(OC)cc3s2)c1
i,Cc1cc(OCC(=O)N2CCN(c3ccc(F)cc3)CC2)nc(-c2ccc(F)cc2)n1
i,COC(=O)c1ccc(NC(=O)CN2CCC(Cn3c(C)nc4ccccc43)CC2)cc1
i,O=C(NCCc1nc(C2CC2)cc(C(F)(F)F)n1)C1CC=CCC1 (centres undefined)
i,Cc1cc(NC(=O)C(=O)NCCCN2CCN(c3ccccc3)CC2)c2ccccc2n1
i,COc1cc(O)c2c(=O)cc(-c3ccccc3)oc2c1
i,Cc1cc(C(=O)NCC2CCN(Cc3ccco3)CC2)no1
i,Cc1cccc(NC(=O)c2coc(NC(=O)c3cnccn3)n2)c1C
i,O=C(Nc1ccc(-n2cnnn2)cc1)c1ccsc1
i,Cc1ccc(-n2cc(C(=O)N3CCC(NC(=O)c4cccnc4)CC3)nn2)cc1
i,CC(=O)c1ccc(NC(=O)COc2cc(C)nc(N3CCc4ccccc4C3)n2)cc1
i,Cc1cc(C(=O)N2CCOCC2)n(CC(=O)NCc2ccco2)n1
i,COc1ccccc1Cn1c(SC)nc2c(-c3ccccc3)c[nH]c2c1=O
i,COc1ccc(C(=O)Nc2cccc(N3CCCS3(=O)=O)c2)cc1
i,Cc1ccc(NC(=O)CSc2nc3c(-c4ccccc4)csc3c(=O)n2C)c(Cl)c1
i,COc1ccc(N2C(=O)CSC23C(=O)N(CC(=O)NCc2ccc(C)cc2)c2ccccc23)cc1 (centres undefined)
i,Cc1ccc(-c2csc(-n3nc(C)cc3NC(=O)c3ccccc3[N+](=O)[O-])n2)cc1
i,Cc1ccccc1C(=O)Nc1ccc(-n2nnc(C(=O)N3CCCC3)n2)cc1
i,COC(=O)c1ccc(NC(=O)C(=O)NCC(O)c2ccc3c(c2)CCO3)cc1 (centres undefined)
i,Cc1nnsc1C(=O)N1CCC(CSc2nccn2C)CC1
i,CCOc1ccc(C2C(=C(O)c3ccc(C)cc3)C(=O)C(=O)N2c2cc(C)on2)cc1OC (centres undefined)
i,CC(O)(CNC(=O)CN1C(=O)CCC1=O)c1cccs1 (centres undefined)

Laid out differently: 17 of the compounds above
structure	GIRK2 activ
COc1cc(O)c2c(=O)cc(-c3ccccc3)oc2c1	i
Cc1cc(C(=O)NCC2CCN(Cc3ccco3)CC2)no1	i
Cc1cccc(NC(=O)c2coc(NC(=O)c3cnccn3)n2)c1C	i
O=C(Nc1ccc(-n2cnnn2)cc1)c1ccsc1	i
Cc1ccc(-n2cc(C(=O)N3CCC(NC(=O)c4cccnc4)CC3)nn2)cc1	i
CC(=O)c1ccc(NC(=O)COc2cc(C)nc(N3CCc4ccccc4C3)n2)cc1	i
Cc1cc(C(=O)N2CCOCC2)n(CC(=O)NCc2ccco2)n1	i
COc1ccccc1Cn1c(SC)nc2c(-c3ccccc3)c[nH]c2c1=O	i
COc1ccc(C(=O)Nc2cccc(N3CCCS3(=O)=O)c2)cc1	i
Cc1ccc(NC(=O)CSc2nc3c(-c4ccccc4)csc3c(=O)n2C)c(Cl)c1	i
COc1ccc(N2C(=O)CSC23C(=O)N(CC(=O)NCc2ccc(C)cc2)c2ccccc23)cc1 (centres undefined)	i
Cc1ccc(-c2csc(-n3nc(C)cc3NC(=O)c3ccccc3[N+](=O)[O-])n2)cc1	i
Cc1ccccc1C(=O)Nc1ccc(-n2nnc(C(=O)N3CCCC3)n2)cc1	i
COC(=O)c1ccc(NC(=O)C(=O)NCC(O)c2ccc3c(c2)CCO3)cc1 (centres undefined)	i
Cc1nnsc1C(=O)N1CCC(CSc2nccn2C)CC1	i
CCOc1ccc(C2C(=C(O)c3ccc(C)cc3)C(=O)C(=O)N2c2cc(C)on2)cc1OC (centres undefined)	i
CC(O)(CNC(=O)CN1C(=O)CCC1=O)c1cccs1 (centres undefined)	i

(list continues)
GIRK2 activ,structure
i,CSc1ccc(NC(=O)c2ccccc2C(F)(F)F)nn1
i,O=C(c1ccco1)N1CCN(Cc2nc(-c3ccc(F)cc3)cs2)CC1
i,COc1cc(C(=O)Nc2nnc(-c3cc4ccccc4o3)o2)cc(OC)c1OC
i,CCOc1cccc2cc(C(=O)NC(C)c3ccccc3)c(=O)oc12 (centres undefined)
i,Cc1nc2ccccc2n1CC1CCN(C(=O)Cc2ccc(F)cc2)CC1
i,O=C(Cc1c[nH]c2ccccc12)N1CCC(c2nnc(-c3ccc(F)cc3)o2)CC1
i,O=C(c1cc(-c2ccccc2)on1)N1CCCC(COCc2ccccc2)C1 (centres undefined)
i,COc1ccc(Br)c(C(=O)N2CCN(CCn3cccn3)CC2)c1
i,CCOC(=O)N1CCC(NC(=O)c2csc(Nc3ncccn3)n2)CC1
i,Cc1ccc(Cl)cc1NC(=O)C(=O)NCCCc1ccc(N(C)C)cc1
i,Cc1cccc(C)c1NC(=O)Cn1nc2c(Sc3cccc(F)c3)nccn2c1=O
i,COc1cccc2cc(C(=O)C3=C(O)C(=O)N(c4cc(C)on4)C3c3ccccc3)oc12 (centres undefined)
i,COc1cccc(S(=O)(=O)N2CCC(Cc3ccccc3)CC2)c1
i,COc1ccc(S(=O)(=O)N2CCSC2c2cc(Br)ccc2OC)cc1 (centres undefined)
i,Cc1c(C)n2c3c(=O)n(C)c(=O)n(C)c3nc2n1CC(=O)c1ccccc1
i,CSc1cccc(NC(=O)CSc2cc(-n3nc(C)cc3C)ncn2)c1
i,CCOc1ccc(C2C(C(=O)c3sc(C)nc3C)=C(O)C(=O)N2CCCN(C)C)cc1 (centres undefined)
i,O=C(Nc1ccc(Cl)c2ncsc12)c1ccc(S(=O)(=O)N2CCOCC2)cc1
i,O=C(NCCc1csc2nc(-c3cccs3)nn12)c1cnn(-c2ccccc2)n1
i,Cc1c(Cl)cccc1NC(=O)C(=O)NCC(O)(c1ccccc1)C1CC1 (centres undefined)
i,O=C(Nc1cccc2ncccc12)c1cnn2c1OCCC2
i,NC(=O)c1ccc(NC(=O)c2ccsc2)cc1
i,O=C(/C=C/c1ccccc1Cl)NCc1cnn2ccccc12
i,CC(Oc1ccccc1)C(=O)N1CCC(Oc2ccccn2)CC1 (centres undefined)
i,O=c1[nH]cn[nH]1
i,O=C(/C=C/c1ccco1)N1CCN(Cc2nc3ccccc3[nH]2)CC1
i,CC(=CCC1=C(C)C(=O)c2ccccc2C1=O)CCCC(C)CCCC(C)CCCC(C)C (centres undefined)
i,Cc1occc1-c1nnc2sc(/C=C/c3ccccc3Cl)nn12
i,Cc1cc(-c2nnc(NC(=O)c3cc(=O)c4ccccc4o3)o2)c(C)o1
i,COc1ccccc1CCNC(=O)Cc1cc(=O)[nH]c(SCc2ccccc2)n1
i,COC(=O)NCCN1CCN(c2ccccc2)CC1
i,CCOC(=O)C1CCN(C(=O)c2nnn(-c3ccccc3Cl)c2-c2ccccn2)CC1
i,COc1ccc(NC(=O)c2c(S(=O)(=O)Nc3ccc(C)cc3)n[nH]c2C)cc1OC
i,O=C(COc1ccccc1F)NCCC(O)c1ccc2c(c1)OCO2 (centres undefined)
i,COc1cccc(-c2cc(C(=O)NC3CNC(=O)C3)[nH]n2)c1 (centres undefined)
i,COc1nn(C)cc1C(=O)Nc1onc2c1CSC2
i,O=C(Nc1ccc(OC(F)(F)F)cc1)c1cc(=O)c(OCc2ccccc2)c[nH]1
i,COc1ccccc1C1(CNC(=O)c2cccc(Br)c2)CCOCC1
i,CS(=O)(=O)N1CCC(C(=O)NC2CC(O)C(CO)C2)CC1 (centres undefined)
i,Cc1ccc(C(=O)Nc2c(C(=O)N3CCN(c4ccccc4F)CC3)[nH]c3ccccc23)cc1
i,CCOc1ccc(NS(=O)(=O)c2cc(C(=O)NCc3ccccc3)n[nH]2)cc1
i,CCn1nccc1NC(=O)Cc1c(C)n(C(=O)c2ccc(Cl)cc2)c2ccc(OC)cc12
i,Cc1cnnn1-c1ccc(C(=O)NC(C)c2ccc(Cl)cc2)cc1 (centres undefined)
i,CC(C)(C)c1csc(CN2CCN(C(=O)c3ccc(F)c(F)c3)CC2)n1
i,O=C1CC(c2nc3ccccc3n2CCOc2ccccc2)CN1CCc1ccccc1 (centres undefined)
i,COC(=O)c1ccc(Cn2cccc(-c3nc(-c4ccncc4)no3)c2=O)o1
i,Cc1ccccc1OCC(=O)Nc1ccc(-n2nnn(C)c2=O)cc1
i,COc1cc(C)ccc1OCC(=O)Nc1cc(N2CCN(c3ccccc3)CC2)ncn1
i,COC(=O)c1ccc(NC(=O)C(=O)NCCc2ccoc2)cc1
i,CCCn1c(C(=O)OC)cc2c(=O)n(C)c(=O)n(C)c21
i,O=C(CSc1nnc(N2CCN(C(=O)c3cccc(Cl)c3)CC2)s1)NCc1ccco1
i,COc1ccc(OC)c(-c2cc3ccc(OC)cc3oc2=O)c1
i,Cc1noc(-c2ccc(NC(=O)C3CCCC3)cc2)n1
i,CCCc1cc(N2CCN(CC#N)CC2)n2nc3nc(C)cc(C)c3c2n1
i,COc1ccc(-c2ccc(=O)n(C(C)C(=O)Nc3ccon3)n2)cc1 (centres undefined)
i,COc1ccc(S(=O)(=O)N2CCCc3cc(NS(=O)(=O)c4cccc(F)c4)ccc32)cc1

The listing continues.
GIRK2 activ,structure
i,Cc1ccc(-c2cc3c(=O)n(CC(=O)NCc4ccco4)ccn3n2)cc1
i,CCOC(=O)c1ccccc1NC(=O)CSc1n[nH]c(=O)c2cc(-c3ccc(F)cc3)nn12
i,COc1ccc(CNC(=O)C2CCN(c3c(C#N)cnc4ccc(F)cc34)CC2)cc1
i,CC(Oc1ccc2c(c1)O/C(=C\c1cccc(Cl)c1)C2=O)C(=O)O (centres undefined)
i,O=C(c1cc(-c2cccc(F)c2)ns1)N1CCN(c2ccc(F)cc2)CC1
i,COc1ccc(NC(=O)Cn2cnc(-c3noc(-c4ccccc4)n3)c2)cc1Cl
i,COc1cccc(-c2nc(CSc3nc4ccccc4c(=O)n3C)c(C)o2)c1OC
i,CCc1ccc(NC(=O)c2c(S(=O)(=O)Nc3ccc(C)cc3)n[nH]c2C)cc1
i,CCc1noc(Cn2cccc(S(=O)(=O)N3CCCC3)c2=O)n1
i,CN(C)C(CNC(=O)C(=O)Nc1ccc2c(c1)OCCO2)c1cn(C)c2ccccc12 (centres undefined)
i,CCn1nc(C(=O)N(Cc2cccnc2)c2nc3cc(C)c(C)cc3s2)cc1C
i,Cc1ccc(OCc2ccc(-c3nc(C#N)c(NCc4cccnc4)o3)o2)cc1
i,Cc1cc(C)c(NC(=O)CSC2=NNC3C4CC(c5ccccc5)NN4C=CN23)c(C)c1 (centres undefined)
i,O=C(c1ccccc1[N+](=O)[O-])N1CCN(c2cc(-c3ccccc3)ncn2)CC1
i,NC1=NC(=O)/C(=C/c2ccc(O)cc2)S1
i,COc1ccc(-c2noc(CN3N=NC4C(=O)N(c5ccc(F)cc5)C(=O)C43)n2)c(OC)c1 (centres undefined)
i,CC(=C\C(=O)O)/C=C(\C)CC(C)(O)CCCCC(O)C(CO)C(=O)O (centres undefined)
i,COC(=O)c1ccc(S(=O)(=O)NCC2CCN(C(=O)Nc3ccc(F)cc3)CC2)cc1
i,Cc1cc(CNC(=O)NC(c2ccccc2)c2ccccc2)c(C)o1
i,O=C(Nc1cnc(Oc2ccccc2)nc1)Nc1ccc(F)cc1F
i,CCCCn1c(=O)[nH]c2c(C(=O)N3CC=C(c4ccccc4)CC3)snc2c1=O
i,Cc1ccc(-n2nnc(C(=O)NCCc3ccccc3)c2-c2cccnc2)cc1
i,O=C(C1CCCC1)N1CC(Oc2nc3c(C(F)(F)F)cccc3s2)C1
i,O=C(NCc1cccs1)c1csc2nc(-c3ccc(F)cc3)cn12
i,CCOc1ccccc1NC(=O)Nc1cc(N2CCCC2)ncn1
i,NCc1ccccc1Cn1cccn1

This is a subset; rates above refer to the full screens.
